Screens deposited in PubChem by National Center for Advancing Translational Sciences (NCATS).
HPGD block: inhibitors of human 15-hydroxyprostaglandin dehydrogenase (HPGD); P15428; purified HPGD, NADH fluorescence kinetic, PGE2 substrate; Potency, µM, inactives show at the top dose activity change, negative = inhibition, most hits filed as inhibitors; hit rate 4.3% among 150,000; AID 894; active = well fitted inhibition curve with a large enough effect (not every such curve was filed as active); inconclusive = small, poorly fitted or top-dose-only effect, or another doubt; inactive = no such curve, though single readings can be large or run the other way;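 further: top concentration of the series not given in the record; plate controls included wells without enzyme; inactives centre near -10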
Target sequence (P15428 whole entry, looked up): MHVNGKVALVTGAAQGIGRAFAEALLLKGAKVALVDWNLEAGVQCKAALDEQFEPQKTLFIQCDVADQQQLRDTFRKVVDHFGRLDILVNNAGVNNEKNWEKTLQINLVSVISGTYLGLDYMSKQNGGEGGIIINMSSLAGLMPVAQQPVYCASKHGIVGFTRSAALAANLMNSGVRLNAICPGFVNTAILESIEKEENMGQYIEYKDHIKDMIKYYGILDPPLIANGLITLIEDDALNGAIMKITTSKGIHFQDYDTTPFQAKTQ
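20 nM HPGD preincubated 15 min at room temperature with compound in 50 mM Tris-HCl pH 8, 0.01% Tween 20. Started with 1 mM NAD+ and 30 uM prostaglandin E2; NADH fluorescence (360/450 nm) read 5 times over 30-s intervals, last minus first.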
Starred values were filed as active, the others as inactive; ? = inconclusive; & = joins results of further samples. On the % scale 0 is the no-effect control and ±100 the full control effect; potency means the concentration at half of the fitted maximal effect. This is a subset, so the mix of outcomes need not match the whole.

Compound	HPGD block
COc1ccc(-c2nc(NC(=O)c3cc(C(C)(C)C)nn3C)sc2C)cc1	?
N#CC1=C(N)NC(SCC(=O)O)=C(C#N)C12CCCC2	12.6µM*
O=C(Nc1ccc(-c2csc(-c3ccccc3)n2)cc1)c1ccccc1	-15.3%
CC1(C)[C@@H](O)CC[C@]2(C)[C@H]3C(=O)C=C4[C@@H]5C[C@@](C)(C(=O)O)CC[C@]5(C)CC[C@@]4(C)[C@]3(C)CC[C@@H]12	-6.0%&-5.2%
CCCCC(=O)NCCNc1nc2c(c(=O)n(C)c(=O)n2C)n1Cc1ccc(F)cc1	-6.7%
O=C(COc1cccc2ccccc12)NNC(=O)Nc1ccccc1	?
CCCCNc1c(NC(C)=O)c(=O)oc2ccccc12	-1.5%
CCc1c(C(=O)NNC(=S)NCC2CCCO2)csc1C (stereo not drawn)	-11.0%
CC(C)(C)c1ccc(OCC(=O)NNC(=O)Cc2cccs2)cc1	-1.6%
COC(=O)c1ccc(OCC(=O)c2ccc(C)c(C)c2)cc1	-26.3%
CCOC(=O)c1oc2ccccc2c1NC(=O)c1cc(OC)cc(OC)c1	?
Cc1ccc(NC(=O)N2CCC(C(=O)NCc3ccccc3)CC2)cc1	-13.7%
O=C(CCN1CCCC1)Nc1ccccc1	5.3%
C=CCn1c(=O)c2ccccc2n2c(SCC(=O)NCc3cccs3)nnc12	-11.3%
CCCc1ccc(Oc2cc(C)nc(N3CCOCC3)n2)cc1	-16.3%
COc1ccc(NC(=O)N2CCCC3(CCN(C(=O)c4cccn4C)CC3)C2)cc1	-8.8%
COC(=O)COc1ccc(S(=O)(=O)Nc2ccccc2C(=O)OC)cc1	-4.3%
Cc1cc(NC(=O)COn2nnc3ccc(Cl)cc32)no1	-10.6%
CC(C)OCCCNC(=O)C1CCC(=O)N1C1CCCC1 (stereo not drawn)	-4.5%
Cc1ccc2nc(N3CCOCC3)c3nncn3c2c1	-9.9%
Cc1ccccc1NS(=O)(=O)c1ccc(F)cc1	1.9%
COc1ccc(Nc2nc(N)nc(SCc3nnc(C)s3)n2)cc1	-0.6%
COc1cc(-c2nn3c(Cc4ccccc4)nnc3s2)cc(OC)c1OC	?
COc1ccc(-c2nnc(SCC(=O)/C(C#N)=C(\C)N)o2)cc1	-7.8%
COCCNC(=O)C(C)OC(=O)c1cc2occc2n1C (stereo not drawn)	14.1µM*
CCOC(=O)c1ccccc1NC(=O)c1cn(CC)c2nc(C)ccc2c1=O	?
COc1cccc(NC(=O)C(NCCC(C)C)c2ccccc2)c1 (stereo not drawn)	-5.2%
COc1cccc(-c2nnc(SCC(=O)Nc3cc(C)ccc3OC)n2N)c1	-3.4%
Cc1ccc(C(=O)NCC2CCCO2)cc1[N+](=O)[O-] (stereo not drawn)	-25.2%
COc1cccc(-n2nnnc2SCC(=O)c2cc(OC)ccc2OC)c1	?
N#Cc1nc(COc2ccc(Cl)cc2Cl)oc1N1CCOCC1	?
COCCN1C(=O)c2oc3ccccc3c(=O)c2C1c1ccc(O)c(OC)c1 (stereo not drawn)	-7.0%
COC(=O)Cc1cc(=O)n2[nH]c(SC)nc2n1	-4.3%
O=C(Nc1ccc2c(c1)OCO2)N1CCN(S(=O)(=O)c2ccc(Cl)cc2)CC1	-2.7%
O=C(NCc1cccnc1)c1cc(-c2ccccc2)on1	-14.2%
NC(=O)C1CCN(C(=O)CSc2nc3ccccc3s2)CC1	-9.2%
Clc1ccccc1CN1CCC(Cc2ccccc2)CC1	-6.4%
Cc1ccc(C(=O)NNC(=O)CSc2nnc(-c3ccccc3)n2Cc2ccccc2)cc1	-7.3%
Cc1ccc2ccccc2c1[N+](=O)[O-]	-8.6%
CC(=O)C1=C(O)CC(c2ccccc2)CC1=NCCc1c(C)[nH]c2ccccc12 (stereo not drawn)	-10.9%
O=c1c(Cl)c(N2CCN(S(=O)(=O)c3ccc(F)cc3)CC2)cnn1-c1cccc(Cl)c1	-0.1%
Cc1ccc(CNc2cc(-c3nn4c(C)nnc4s3)ccc2C)s1	-19.5%
COC(=O)C1=C(C)N=C2SCCC(=O)N2C1c1ccc(C(=O)OC)cc1 (stereo not drawn)	-7.1%
Clc1cccc(CSc2nnc(-c3sccc3-n3cccc3)o2)c1	-21.3%
Cc1ccccc1C(=O)Nc1ccccc1C(=O)N/N=C\c1ccco1	-7.5%
O=C(CSc1nc2cccnc2n1Cc1ccccc1)NC1CCCCC1	?
COC(=O)[C@@]1(Cc2ccc(F)cc2)[C@H]2c3cc(C(=O)N(C)C)n(Cc4ccc(OC)c(OC)c4)c3C[C@H]2CN1C(=O)c1ccccc1	-8.0%&-6.5%
O=C(NCc1ccco1)C(c1cccnc1)N(C(=O)Cn1nnc2ccccc21)c1ccccc1 (stereo not drawn)	-9.7%
S=C(NCCSCc1ccc(Cl)cc1Cl)Nc1ccccc1	-26.6%
CCOc1ccc2ccccc2c1/C=N/NC(=O)CNC(=O)Cc1ccccc1	?
CC(NC(=O)c1ccccc1)C(c1cccs1)N1CCOCC1 (stereo not drawn)	-4.3%
COc1cc(OC)c(NC(=O)CCc2ccccc2)cc1Cl	15.8µM*
COc1ccc2c(c1OC)C(=O)OC2Nc1nc(-c2ccc(-c3ccccc3)cc2)cs1 (stereo not drawn)	?
C[n+]1c2n(c3ccccc31)N=C(c1ccc(Br)cc1)CS2	-6.3%
C[C@@]12CCC3c4ccc(OS(=O)(=O)O)cc4CCC3C1CCC2O (stereo partly drawn)	-11.2%
COC(=O)c1c(C)[nH]c(C(=O)COC(=O)Cc2ccc3c(c2)OCCO3)c1C	-6.9%
Cn1c(CNc2ccccn2)c(C#N)c2ccccc21	-9.2%
COc1ccc(C2C(C(N)=O)=C(C)Nc3nc(-c4ccccc4Cl)nn32)c(OC)c1 (stereo not drawn)	-1.3%
CC(/C=C/c1ccccc1)=N/NC(=O)c1cc([N+](=O)[O-])cc([N+](=O)[O-])c1	?
O=C(NCC1OCCc2ccccc21)c1ccc(NC(=O)c2ccc(Cl)cc2)cc1 (stereo not drawn)	-9.7%

Entries from the list above with a nitro group on carbon:
Compound	HPGD block
Cc1ccc(C(=O)NCC2CCCO2)cc1[N+](=O)[O-] (stereo not drawn)	-25.2%
Cc1ccc2ccccc2c1[N+](=O)[O-]	-8.6%
CC(/C=C/c1ccccc1)=N/NC(=O)c1cc([N+](=O)[O-])cc([N+](=O)[O-])c1	?

(next part)
Compound	HPGD block
Cn1c(SCC(=O)Nc2ccc(F)cc2)nnc1-c1cccnc1	-4.4%
O=C(NCc1cccc(Cl)c1)c1ccc2nc[nH]c2c1	-4.5%
CCOC(=O)CSC1=C(C#N)C(=O)NC2(CCCCC2)S1	-24.1%
COc1cc(NC(=O)c2ccc(Br)o2)ccc1NC(=O)c1ccccc1Cl	-18.3%
Cc1occc1C(=O)OCC(=O)Nc1ccc(F)cc1	-0.8%
CCc1ccc2c(c1)C1(NN=C(c3ccccc3)S1)C(=O)N2 (stereo not drawn)	?
COCCNC(=O)c1ccc(NS(=O)(=O)c2cc(C)ccc2C)cc1	?
CC(=O)Nc1cc(C(=O)N(C)Cc2ccco2)ccc1Sc1ccc(Cl)cc1	-14.0%
C/C(CCc1ccc2c(c1)OCO2)=N\N=C1\NC(=O)CC(C(=O)Nc2ccccc2)S1 (stereo not drawn)	-5.3%
CCn1c(=N)n(CC(=O)c2ccco2)c2ccccc21	-4.8%
CCCCC1=NN2C(=N)CC(=O)N=C2S1	-1.8%
CCn1c(COc2ccc(C)cc2)nnc1SCC(=O)NNC(=O)c1ccc(OC)cc1	0.7%
Cc1c(C#N)c2ccccc2n1CC(=O)NC(C)c1ccccc1 (stereo not drawn)	-4.6%
Oc1c(Cl)cc(Cl)cc1/C=N/c1nccs1	-22.9%
CC(=O)c1ccc(N2Cc3ccccc3C2=NC(=O)c2cccs2)cc1	-17.5%
CC(=O)N1N=C(c2cccc(Cl)c2)OC1c1ccc(C(C)C)cc1 (stereo not drawn)	-6.8%
O=C(CCC(=O)N1CCc2ccccc21)Nc1ccccc1	-7.1%
O=C1CCC(C(=O)N(Cc2ccco2)C2(C(=O)NC3CCCC3)CCCCC2)N1 (stereo not drawn)	-3.8%
COCCNC(=O)c1ccc(C)c(S(=O)(=O)Nc2ccc(C)cc2)c1	-7.9%
O=C(Oc1ccc([N+](=O)[O-])cc1)c1ccc2ccccc2n1	-25.2%
Cc1cc2ncn(S(=O)(=O)N3CCCCC3)c2cc1C	-10.6%
O=C(NC1CCCc2ccccc21)C1CCN(S(=O)(=O)c2cccc3nsnc23)CC1 (stereo not drawn)	2.0%
COc1cc2c(C(=O)N3CCN(C)CC3)c(C)oc2cc1Br	-3.2%
Cc1nn(-c2ccccc2)c2c1C(O)n1c(nc3ccccc31)S2 (stereo not drawn)	-10.3%
Cc1nc(SCC(=O)NCc2ccc(F)cc2)c2c(=O)n(C)c(=O)n(C)c2n1	-11.7%
CC(C)C(=O)Nc1ccc(C(=O)N2CCN(C(=O)c3ccco3)CC2)cc1	-8.9%
CCOC(=O)N1CCC(NC(=O)c2ccc3c(=O)n4c(nc3c2)CCCC4)CC1	-5.7%
CCC1=NN(C(=O)C(=O)Nc2ccc(OC)cc2)C(O)(C(F)(F)F)C1 (stereo not drawn)	-12.3%
COc1ccc(C2CC(=O)C=C(NC3CCCC3)C2)cc1 (stereo not drawn)	-0.2%
CC(C)(C)c1cc(/C=N/NC(=O)Cc2nc3ccccc3[nH]2)cc(C(C)(C)C)c1O	-26.7%

A different layout for part of the listing above:
O=C(CCN1CCCC1)Nc1ccccc1
- HPGD block: 5.3%

C=CCn1c(=O)c2ccccc2n2c(SCC(=O)NCc3cccs3)nnc12
- HPGD block: -11.3%

CCCc1ccc(Oc2cc(C)nc(N3CCOCC3)n2)cc1
- HPGD block: -16.3%

COc1ccc(NC(=O)N2CCCC3(CCN(C(=O)c4cccn4C)CC3)C2)cc1
- HPGD block: -8.8%

The list continues:
Compound	HPGD block
COc1ccccc1NC1=NC(c2ccc(Cl)cc2)N=C(N)N1 (stereo not drawn)	-11.2%
COC(=O)C(CC(C)C)Oc1ccc2c(C)cc(=O)oc2c1 (stereo not drawn)	?
Nc1nc(SCc2ccccc2)c2ncn(Cc3ccccc3)c2n1	-11.2%
CCOC(=O)C1=C(C)NC(=S)NC1c1ccc(-c2cccc(Cl)c2C)o1 (stereo not drawn)	-11.5%
Cc1ccc(-c2nc3ccccc3s2)cc1NC(=S)NC(=O)/C=C/c1ccco1	0.8%
O=C(N1CCOCC1)N1CCC(n2nnc3ccccc32)CC1	-16.7%
O=C(COc1cccc(OC(F)F)c1)Nc1ccc(SC(F)F)cc1	-2.6%
CCN1C(=O)C(NC(C)=O)c2cc(Br)ccc21 (stereo not drawn)	0.5%
Cc1nn(CC(=O)NC(C)c2ccccc2)c(=O)c2ccccc12 (stereo not drawn)	-10.7%
CC(C)(C)n1nc2c(c1NC(=O)COc1ccc3ccccc3c1)CS(=O)(=O)C2	-4.7%
CCN1CCN(S(=O)(=O)c2cccc([N+](=O)[O-])c2)CC1	-8.3%
CCOC(=O)C1CCCN(c2c(NCC3CCCN3CC)c(=O)c2=O)C1 (stereo not drawn)	-2.2%
CCOC(=O)c1c(-c2cccs2)csc1NC(C)=O	-14.4%
CCN1C(=S)SC(=O)C1=C1C=C(C)N(CCO)C(C)=C1	?
CCOC(=O)c1csc(NC(=O)Nc2cccc(OC)c2)n1	-6.0%
CCC(=O)Nc1c2c(nn1-c1ccccc1C)CSC2	-2.4%
O=c1c(CN2CCN(c3ccccn3)CC2)coc2ccccc12	-2.2%
COC(=O)c1cc2oc(C)cc2n1CC(=O)Nc1ccc(C)c(C)c1	-5.4%
O=C(Nc1ccc2c(c1)OCCO2)C1CCN(S(=O)(=O)c2cccc3nsnc23)CC1	-14.9%
Cc1[nH]c2ccc(CNS(=O)(=O)c3ccc(S(=O)(=O)N4CCOCC4)cc3)cc2c1C	-11.1%
CC(C)NC(=O)C(=O)NCCc1ccc(Cl)cc1	0.8%
c1ccc2nc3c(cc2c1)CCCCCC3	-5.8%
COC(=O)c1ccccc1NC(=O)C1CCN(C(=O)c2cc(OC)c(OC)c(OC)c2)CC1	-11.2%
Cc1ccc(S(=O)(=O)N2CCN(C(=O)CSc3nnc(C)s3)C2)cc1	-4.9%
Clc1ccc(OCc2nnc(SCc3nnc(-c4ccccc4)o3)o2)c(Cl)c1	7.94µM*
Cc1ccc(CNC(=O)C23CN(Cc4ccccc4)CC2C(c2ccc([N+](=O)[O-])cc2)=NO3)cc1 (stereo not drawn)	-13.6%
O=C(c1cccc(F)c1)N1CCN(CC2CC3C=CC2C3)CC1 (stereo not drawn)	6.7%
Cn1c(=O)n(C)c2cc([N+](=O)[O-])c(N3CCN(C(=O)c4ccccc4)CC3)cc21	-7.1%
C[C@H](NC(=O)NC1CCCc2ccccc21)C(=O)O (stereo partly drawn)	3.3%
O=c1c(C(c2nnnn2C2CCCCC2)N2CCCCC2)coc2ccc(Cl)cc12 (stereo not drawn)	-7.5%
